Vaccinia stage: blocks a specific stage of Vaccinia orthopoxvirus infection; Vaccinia-infected cells, mCherry/Venus stage reporter fluorescence; hits give low values; some inactives read as strong as hits; activity change (mCherry), % (concentration not given with the values); 0.01% of 89,000 active;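 active = mCherry past -33% and 40 or more points under the early reporter, replicates agreeing; inconclusive = past -33% without that gap or agreement; tested in A549 cells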;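 also: scaled between vehicle wells and reference inhibitor wells; 23 nL library stock went into each well; one replicate is shown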
Vaccinia stage Venus: recorded beside Vaccinia stage, whose call it bears; activity change (Venus), %; measured here: Venus reporter, other viral stage;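 negative = less Venus signal; first of two replicates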
* = called active by the depositor; ? = inconclusive; · = no result given.

SMILES | Vaccinia stage | Vaccinia stage Venus
COc1ccc(S(=O)(=O)Nc2ccc3c(c2)C(=O)N([C@H](C)CO)C[C@@H](C)[C@@H](CN(C)Cc2ccc(-c4ccccc4)cc2)O3)cc1 | ? | ·
COc1ccc(S(=O)(=O)Nc2cccc3c2O[C@H](CN(C)C)[C@@H](C)CN([C@H](C)CO)C3=O)cc1 | 12 | 14
CN(C)C(=O)c1ccc(-c2ccc([C@H]3[C@@H](CO)N4CCCCN(Cc5cccnc5)C[C@H]34)cc2)cc1 | 18 | -3
CC(=O)N1[C@@H]2Cn3c(ccc(-c4cccnc4)c3=O)[C@H]1[C@@H](C(=O)NC1Cc3ccccc3C1)[C@@H]2CO | 5 | 10
COc1ccc(S(=O)(=O)N(C)C[C@@H]2OCCCC[C@H](C)Oc3ccc(NS(=O)(=O)c4ccc(Cl)cc4)cc3C(=O)N([C@H](C)CO)C[C@@H]2C)cc1 | ? | ·
Cc1ccc(S(=O)(=O)Nc2ccc3c(c2)CC(=O)N([C@@H](C)CO)C[C@H](C)[C@H](CN(C)C(=O)Nc2ccc4c(c2)OCO4)O3)cc1 | 1 | -1
CCS(=O)(=O)N1[C@@H](CO)[C@@H](c2ccccc2)C12CN(C(=O)C1CC1)C2 | 3 | 0
O=C(C[C@@H]1C[C@H]2c3cc(NC(=O)C4CCC4)ccc3O[C@H]2[C@H](CO)O1)NCc1ccc(-c2ccccc2)cc1 | ? | ·
C[C@H](NC(=O)C[C@H]1CC[C@H]2[C@@H](COC[C@@H](O)CN2C)O1)c1ccccc1 | 17 | 18
CO[C@@H]1CN(C)C(=O)c2ccc(NC(C)=O)cc2OC[C@H](C)N(C(=O)C2CC2)C[C@@H]1C | 2 | 2
C[C@H](O)C#Cc1ccc([C@H]2[C@H](CO)N3CCCCN(C(=O)Nc4ccccc4)C[C@@H]23)cc1 | -8 | -6
CC=Cc1ccc2n(c1=O)C[C@@H]1[C@@H](CO)[C@H](C(=O)NCC3CC3)N(Cc3ccccc3)[C@H]21 (mixture of isomers) | 3 | 13
CCS(=O)(=O)Nc1ccc2c(c1)C(=O)N(C)C[C@H](OC)[C@H](C)CN(C(=O)CN(C)C)[C@H](C)CO2 | -1 | 1
C[C@@H]1CCCCO[C@H](CN(C)S(=O)(=O)c2ccc(Cl)cc2)[C@H](C)CN([C@H](C)CO)C(=O)c2cc(NS(=O)(=O)c3ccccc3)ccc2O1 | -31 | -16
C[C@H](CO)N1C[C@H](C)[C@H](CN(C)Cc2ccncc2)Oc2ncc(C3=CCCCC3)cc2C1=O | -5 | -5

Complete entries, quoted from the list:
Cc1ccc(S(=O)(=O)Nc2ccc3c(c2)CC(=O)N([C@@H](C)CO)C[C@H](C)[C@H](CN(C)C(=O)Nc2ccc4c(c2)OCO4)O3)cc1 is listed with Vaccinia stage = 1; Vaccinia stage Venus = -1
CO[C@@H]1CN(C)C(=O)c2ccc(NC(C)=O)cc2OC[C@H](C)N(C(=O)C2CC2)C[C@@H]1C is listed with Vaccinia stage = 2; Vaccinia stage Venus = 2

Next section
SMILES | Vaccinia stage | Vaccinia stage Venus
CN(C)CCCCNC(=O)[C@@H]1C[C@@H]2C(=O)NCC(=O)N2[C@@H]1c1ccc(O)cc1 | 13 | 14
Cc1ccc(S(=O)(=O)NCC[C@@H]2CC[C@@H](NC(=O)NC(C)C)[C@@H](CO)O2)cc1 | 18 | 17
C[C@@H]1CN([C@@H](C)CO)C(=O)Cc2cc(NC(=O)c3ccncc3)ccc2O[C@H]1CN(C)S(C)(=O)=O | -4 | 0
CCC(=O)N1CC2(CCN(Cc3ccccc3Cl)CC2)c2c([nH]c3cc(OC)ccc23)[C@H]1CO | ? | ·
Cc1ccc(S(=O)(=O)Nc2ccc3c(c2)C(=O)N([C@@H](C)CO)C[C@H](C)[C@H](CN(C)Cc2ccc4c(c2)OCO4)OCCCC[C@H](C)O3)cc1 | ? | ·
C[C@H]1CN([C@@H](C)CO)C(=O)c2cc(-c3cccc(F)c3)cnc2O[C@@H]1CN(C)Cc1ccncc1 | -18 | -20
CC(=O)N(C)C[C@@H]1Oc2cc(C#CC3CCCCC3)ccc2S(=O)(=O)N([C@@H](C)CO)C[C@@H]1C | ? | ·
COCC#Cc1ccc([C@H]2[C@@H](C#N)N(C(=O)Cc3ccccc3)[C@@H]2CO)cc1 | 8 | 6
N#Cc1cccc(-c2ccc([C@H]3[C@@H](CO)N4CCCCN(C(=O)Cc5ccccc5)C[C@H]34)cc2)c1 | -17 | -22
O=C(Nc1cccc(Cl)c1)N[C@H]1CC[C@@H](CCNC(=O)C2CCOCC2)O[C@@H]1CO | 7 | -2
C[C@@H]1CN([C@H](C)CO)C(=O)c2cc(NC(=O)C3CC3)ccc2O[C@@H]1CN(C)C(=O)Nc1ccc2c(c1)OCO2 | 18 | 11
CO[C@@H]1CN(C)C(=O)c2cc(NC(=O)C3CCC3)ccc2OC[C@H](C)N(C(=O)NC(C)C)C[C@@H]1C | 7 | 12
CC1=C(C(=O)N2CCC=CC2=O)Cc2ccccc21 | -27 | -13
C[C@@H]1CN([C@@H](C)CO)C(=O)c2cc(NC(=O)CCN3CCOCC3)ccc2O[C@H]1CN(C)Cc1ccccc1 | -1 | -2
CNC[C@H]1Oc2c(NC(=O)NC3CCCCC3)cccc2C(=O)N([C@H](C)CO)C[C@@H]1C | 4 | -3
C[C@@H]1CCCCO[C@@H](CN(C)Cc2ccc3c(c2)OCO3)[C@H](C)CN([C@@H](C)CO)C(=O)c2cc(NS(=O)(=O)c3ccccc3)ccc2O1 | -10 | -9
C[C@@H]1CN([C@@H](C)CO)C(=O)c2cc(NS(=O)(=O)c3ccccc3)ccc2O[C@@H](C)CCCCO[C@@H]1CN(C)S(=O)(=O)c1ccccc1 | -29 | -17
CO[C@@H]1CN(C)C(=O)c2cc(NC(=O)C3CC3)ccc2OC[C@@H](C)N(Cc2ccncc2)C[C@@H]1C | -11 | -5
CNC(=O)C[C@H]1CC[C@H]2[C@H](COc3ccc(NS(=O)(=O)c4cccc(F)c4)cc3C(=O)N2C)O1 | 13 | 5
Cc1ccccc1S(=O)(=O)N1CC(=O)N2[C@H](CO)[C@@H](c3ccc(C#CCC(C)C)cc3)[C@H]2C1 | -33 | -28
COCC(=O)Nc1ccc2c(c1)C(=O)N(C)C[C@H](OC)[C@H](C)CN(C(C)=O)[C@@H](C)CO2 | 6 | 6
Cc1ccc(-c2ccc([C@@H]3[C@@H](CO)N4CCCCN(C(=O)c5ccc(F)cc5)C[C@@H]34)cc2)cc1 | ? | ·
COc1ccc(CN2C[C@H](O)COC[C@@H]3O[C@@H](CC(=O)NCc4ccccc4Cl)CC[C@H]32)cc1 | 4 | -3
C[C@@H](NC(=O)[C@@H]1[C@@H](CO)[C@@H]2Cn3c(ccc(-c4ccccc4F)c3=O)[C@H]1N2)c1ccccc1 | -7 | -1
CC(C)NC(=O)N(C)C[C@@H]1Oc2c(NC(=O)C3CCCCC3)cccc2C(=O)N([C@H](C)CO)C[C@@H]1C | 26 | 19
O=C(C[C@@H]1CC[C@H]2[C@@H](COC[C@H](O)CN2C(=O)c2ccccc2F)O1)NCc1ccc(Cl)cc1 | 5 | 7
COc1ccc(-c2ccc([C@@H]3[C@H](CO)N4CCCCN(C(=O)c5ccc6c(c5)OCO6)C[C@@H]34)cc2)cc1 | ? | ·
Cc1noc(C)c1NC(=O)N[C@H]1CC[C@H](CCNC(=O)C2CCOCC2)O[C@@H]1CO | -12 | -6
C[C@@H]1CN([C@@H](C)CO)C(=O)c2cccc(NC(=O)C3CC3)c2O[C@@H]1CN(C)S(=O)(=O)c1ccc(F)cc1 | -6 | -7
COc1ccc(NC(=O)N(C)C[C@H]2Oc3ncc(C#CCC(C)C)cc3C(=O)N([C@@H](C)CO)C[C@@H]2C)cc1 | -6 | -8

Of the compounds above, two have a cyano group:
SMILES | Vaccinia stage | Vaccinia stage Venus
COCC#Cc1ccc([C@H]2[C@@H](C#N)N(C(=O)Cc3ccccc3)[C@@H]2CO)cc1 | 8 | 6
N#Cc1cccc(-c2ccc([C@H]3[C@@H](CO)N4CCCCN(C(=O)Cc5ccccc5)C[C@H]34)cc2)c1 | -17 | -22

The list continues:
SMILES | Vaccinia stage | Vaccinia stage Venus
C[C@H]1CN([C@@H](C)CO)C(=O)Cc2cc(NC(=O)NC3CCCCC3)ccc2O[C@@H]1CN(C)CC1CC1 | -4 | -2
COc1ccccc1-c1ccc2c(c1)O[C@@H](CN(C)S(=O)(=O)c1ccc(C)cc1)[C@H](C)CN([C@H](C)CO)S2(=O)=O | -29 | -18
COCCNC(=O)C[C@H]1CC[C@H](NC(=O)NC2CCCC2)[C@@H](CO)O1 | -15 | 3
CC(=O)N(C)C[C@H]1OCc2ccccc2-c2ccccc2C(=O)N([C@@H](C)CO)C[C@@H]1C | 34 | 17
CS(=O)(=O)Nc1ccc2c(c1)[C@H]1C[C@@H](CC(=O)NCc3cc(F)ccc3F)O[C@H](CO)[C@H]1O2 | 4 | 6
Cc1ccc(S(=O)(=O)N(C)C[C@@H]2OCCCC[C@H](C)Oc3ccc(NS(=O)(=O)c4cccs4)cc3C(=O)N([C@H](C)CO)C[C@H]2C)cc1 | ? | ·
C[C@H](CO)N1C[C@H](C)[C@H](CN(C)S(C)(=O)=O)Oc2c(NS(=O)(=O)c3ccc(F)cc3)cccc2C1=O | 17 | 9
C/C=C/c1cnc2c(c1)C(=O)N([C@@H](C)CO)C[C@H](C)[C@H](CN(C)C(=O)c1cccnc1)O2 | 18 | 10
CS(=O)(=O)Nc1ccc2c(c1)[C@@H]1C[C@@H](CC(=O)NCc3ccncc3)O[C@H](CO)[C@@H]1O2 | 5 | -11
Cc1cc(C)cc(N2C(=O)CS(=O)(=O)C2c2ccccc2)c1 (stereo not drawn) | -6 | 5
O=C(O)C[C@@H]1C=C[C@@H](NC(=O)Nc2cc(F)ccc2F)[C@H](CO)O1 | 2 | 7
CCCNC(=O)C[C@@H]1CC[C@H]2[C@@H](COc3ccc(NC(=O)Nc4c(C)noc4C)cc3C(=O)N2C)O1 | 8 | 0
CCS(=O)(=O)N1CCC2(CC1)CN(S(=O)(=O)c1cn(C)cn1)[C@@H](CO)c1[nH]c3cc(OC)ccc3c12 | 10 | 7
Cc1noc(C)c1NC(=O)N(C)C[C@@H]1OCCCC[C@@H](C)Oc2ccc(NC(=O)c3ccncc3)cc2C(=O)N([C@H](C)CO)C[C@H]1C | 13 | 14
C[C@@H]1CN([C@H](C)CO)C(=O)c2cccc(NC(=O)C3CCCCC3)c2O[C@@H]1CN(C)CC1CC1 | 10 | 13
C[C@H]1CN([C@@H](C)CO)S(=O)(=O)c2ccc(C#CC3CC3)cc2O[C@H]1CN(C)C(=O)c1ccccn1 | -6 | -4
C[C@H](O)C#Cc1ccc2c(c1)O[C@H](CN(C)CC1CCOCC1)[C@@H](C)CN([C@H](C)CO)S2(=O)=O | 1 | 2
O=C(C[C@@H]1C=C[C@H](NC(=O)Nc2ccc(C(F)(F)F)cc2)[C@H](CO)O1)NCc1ccccn1 | -2 | -1
CO[C@H]1CN(C)C(=O)c2ccc(NS(C)(=O)=O)cc2OC[C@@H](C)N(S(C)(=O)=O)C[C@@H]1C | 7 | 14
C[C@@H]1CCCCO[C@@H](CN(C)C(=O)Nc2cccc3ccccc23)[C@@H](C)CN([C@H](C)CO)C(=O)c2cc(NS(=O)(=O)c3ccccc3)ccc2O1 | 41 | 32
COc1cccc(NC(=O)N[C@@H]2CC[C@H](CC(=O)N3CCN(C)CC3)O[C@@H]2CO)c1 | 16 | 7
COCC#Cc1ccc2c(c1)O[C@H](CN(C)C(=O)C1CCCCC1)[C@@H](C)CN([C@@H](C)CO)S2(=O)=O | -19 | -15
COc1ccc2c3c([nH]c2c1)[C@@H](CO)N(S(C)(=O)=O)CC31CCN(C(=O)Cc2cccnc2)CC1 | 17 | 8
COCC#Cc1ccc([C@@H]2[C@@H](CO)N3CCCCN(S(=O)(=O)c4ccccc4F)C[C@@H]23)cc1 | 21 | 7
O=C(c1ccncc1)N1CC[C@H]2[C@H](CO)Nc3ccc(-c4ccccc4)cc3[C@H]21 | -7 | -7
CC(C)NC(=O)Nc1ccc2c(c1)C(=O)N([C@H](C)CO)C[C@H](C)[C@@H](CN(C)C(=O)Nc1ccc(C(F)(F)F)cc1)O2 | 2 | 3
Cc1noc(C)c1NC(=O)N(C)C[C@H]1Oc2ncc(C#CCN(C)C)cc2C(=O)N([C@H](C)CO)C[C@H]1C | 11 | 12
CCNC(=O)C[C@@H]1CC[C@@H]2[C@H](COc3ccc(NC(=O)Cc4ccccc4)cc3C(=O)N2C)O1 | 6 | 5
COc1ccccc1NC(=O)N1CCCCN2[C@H](CO)[C@H](c3ccc(C#CC4CC4)cc3)[C@H]2C1 | ? | ·
COCC(=O)N(C)C[C@H]1Oc2ncc(C#Cc3ccccc3OC)cc2C(=O)N([C@@H](C)CO)C[C@H]1C | 8 | 4
CCC(=O)N1CC2(C1)[C@@H](c1ccccc1)[C@H](CO)N2C(=O)NC(C)C | 20 | 11
C[C@H](CO)N1C[C@H](C)[C@H](CN(C)C(=O)NC2CCCCC2)Oc2ccc(NS(=O)(=O)c3ccc(F)cc3)cc2CC1=O | -5 | -3

Rewritten with two lines to a compound: part of the list above
Sequence of screens: Vaccinia stage | Vaccinia stage Venus
> C[C@@H]1CCCCO[C@@H](CN(C)C(=O)Nc2cccc3ccccc23)[C@@H](C)CN([C@H](C)CO)C(=O)c2cc(NS(=O)(=O)c3ccccc3)ccc2O1
 : 41 | 32
> COc1cccc(NC(=O)N[C@@H]2CC[C@H](CC(=O)N3CCN(C)CC3)O[C@@H]2CO)c1
 : 16 | 7
> COCC#Cc1ccc2c(c1)O[C@H](CN(C)C(=O)C1CCCCC1)[C@@H](C)CN([C@@H](C)CO)S2(=O)=O
 : -19 | -15

Source: PubChem BioAssay (Broad Institute)

This is a subset; count on the stated rates, not on these rows.
